# Source: PubChem (Broad Institute)
# FGF22 binding – shifts melting point of recombinant human FGF22. Q9HCT0. recombinant FGF22 thermal shift, SYPRO orange fluorescence; percent of sucrose octasulfate shift, DMSO zero. calls only at 9.99 µM. 340,000 compounds, 1.5% hits. AID 651658;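 active = melting point raised past a set limit in the mean and every replicate; three in four hits are not shown here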
# Target sequence (Q9HCT0 whole entry, looked up): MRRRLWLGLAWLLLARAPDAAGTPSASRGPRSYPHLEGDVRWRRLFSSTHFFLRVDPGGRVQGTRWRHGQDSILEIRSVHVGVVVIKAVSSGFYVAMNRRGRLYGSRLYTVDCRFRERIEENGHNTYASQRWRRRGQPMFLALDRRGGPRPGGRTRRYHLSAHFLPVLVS
# Calls only; i = inactive.
structure	FGF22 binding
C[C@@H]1CN([C@H](C)CO)C(=O)c2cc(/C=C/c3ccccc3)cnc2O[C@@H]1CN(C)C(=O)c1ccncc1	i
O=C(C[C@@H]1CC[C@H](NC(=O)Nc2cc(F)ccc2F)[C@@H](CO)O1)NCc1ccccn1	i
C[C@H]1CN([C@@H](C)CO)S(=O)(=O)c2ccc(C3=CCCC3)cc2O[C@@H]1CN(C)Cc1ccccn1	i
C[C@H]1CN([C@@H](C)CO)C(=O)c2cc(C#CC3CC3)cnc2O[C@@H]1CN(C)C(=O)c1ccc(F)cc1	i
COc1ccc(NC(=O)Nc2ccc3c(c2)C(=O)N([C@H](C)CO)C[C@H](C)[C@@H](CN(C)CC2CC2)OCCCC[C@H](C)O3)cc1	i
CCCN(C)C[C@@H]1OCCCC[C@@H](C)Oc2ccc(NS(=O)(=O)c3ccc(F)cc3)cc2C(=O)N([C@@H](C)CO)C[C@@H]1C	i
Cc1ccc(-c2c(C(=O)c3ccccc3)[nH]c(N)c2C(=O)NCCc2c[nH]c3ccccc23)cc1	i
C[C@H](CO)N1C[C@H](C)[C@@H](CN(C)C)Oc2ccc(NC(=O)Nc3ccc(C(F)(F)F)cc3)cc2CC1=O	i
C[C@H](CO)N1C[C@H](C)[C@@H](CN(C)C)Oc2cc(-c3ccc(F)cc3)ccc2S1(=O)=O	i
COC(=O)[C@@H]1[C@@H](CO)[C@@H]2Cn3c(ccc(-c4ccccc4F)c3=O)[C@@H]2N1C(=O)CC1CC1	i
O=C(Nc1ccc(Cl)c(Cl)c1)N[C@@H]1CC[C@@H](CCn2cc(C3CC3)nn2)O[C@@H]1CO	i
C[C@@H]1CN([C@H](C)CO)C(=O)c2cc(NC(=O)C3CC3)ccc2O[C@H]1CN(C)C(=O)Nc1ccc2c(c1)OCO2	i
C[C@@H]1CN([C@@H](C)CO)C(=O)c2cc(-c3cncnc3)cnc2O[C@H]1CN(C)CC1CCOCC1	i
C[C@@H]1CN([C@H](C)CO)C(=O)c2cccc(NC(=O)Nc3ccc(F)cc3)c2O[C@H]1CN(C)CC1CCCCC1	i
CO[C@H]1CC[C@@H]2CCOc3c(C#N)cccc3C(=O)N(C)CCCC(=O)N(C)C[C@@H]1O2	i
C[C@@H]1CN([C@@H](C)CO)S(=O)(=O)c2ccc(C#Cc3ccccn3)cc2O[C@@H]1CN(C)C(=O)C1CC1	i
Cc1noc(C)c1NC(=O)N(C)C[C@H]1Oc2ccc(NC(=O)Nc3ccc(C(F)(F)F)cc3)cc2CC(=O)N([C@H](C)CO)C[C@H]1C	i
COc1ccc2c3c(n(C)c2c1)[C@H](CO)N(Cc1ccncc1)CC31CCN(C(=O)C2CCC2)CC1	i
C[C@H](CO)N1C[C@H](C)[C@@H](CN(C)C(=O)Cc2ccccc2)Oc2ncc(C#CCN(C)C)cc2C1=O	i
CN1OC[C@@H]2CN(C(=S)Nc3cc(C(F)(F)F)cc(C(F)(F)F)c3)[C@H](c3ccccc3Br)C[C@@H]21	i
O=C(C[C@@H]1CC[C@@H](NC(=O)Nc2ccc(F)cc2)[C@@H](CO)O1)NCc1cccc(F)c1	i
CC(C)NC(=O)N(C)C[C@H]1OCCCC[C@H](C)Oc2ccc(NS(C)(=O)=O)cc2C(=O)N([C@@H](C)CO)C[C@H]1C	i
C[C@H](CO)N1C[C@H](C)[C@@H](CN(C)C(=O)Nc2ccc3c(c2)OCO3)OCCCC[C@H](C)Oc2ccc(NC(=O)NC3CCCCC3)cc2C1=O	i
COc1ccc(NC(=O)Nc2ccc3c(c2)C(=O)N([C@H](C)CO)C[C@@H](C)[C@@H](CN(C)C(=O)Nc2ccc4c(c2)OCO4)OCCCC[C@@H](C)O3)cc1	i
C[C@@H]1CCCCO[C@H](CN(C)S(=O)(=O)c2ccccc2)[C@@H](C)CN([C@H](C)CO)C(=O)c2cc(NS(=O)(=O)c3cccs3)ccc2O1	i
C[C@@H]1CCCCO[C@H](CN(C)C(=O)Nc2ccccc2)[C@H](C)CN([C@H](C)CO)C(=O)c2cc(NS(=O)(=O)c3cccs3)ccc2O1	i
Cc1ccc(S(=O)(=O)Nc2cccc3c2O[C@@H](CN(C)C)[C@H](C)CN([C@@H](C)CO)C3=O)cc1	i
COc1ccc(NC(=O)N(C)C[C@@H]2Oc3c(NC(=O)c4cc(C)nn4C)cccc3C(=O)N([C@H](C)CO)C[C@@H]2C)cc1	i
O=C(O)C[C@H]1C=C[C@H](NC(=O)c2ccccc2F)[C@@H](CO)O1	i
COc1ccccc1S(=O)(=O)N[C@H]1C=C[C@@H](CC(=O)NCc2cccc(F)c2)O[C@H]1CO	i

# The list goes on.
structure	FGF22 binding
COc1ccc(S(=O)(=O)Nc2cccc3c2O[C@@H](CN(C)Cc2ccccc2)[C@H](C)CN([C@H](C)CO)C3=O)cc1	i
C[C@@H]1CN([C@H](C)CO)C(=O)c2cc(N(C)C)ccc2O[C@@H]1CN(C)C(=O)Nc1ccccc1	i
CN(C)C(=O)[C@@H]1[C@@H](CO)[C@@H]2Cn3c(ccc(C4=CCCC4)c3=O)[C@H]1N2Cc1cccnc1	i
COc1ccccc1NC(=O)N1C[C@@H]2[C@H](c3ccccc31)[C@H](CO)N2C(C)=O	i
Cc1noc(C)c1NC(=O)N(C)C[C@@H]1OCCCC[C@@H](C)Oc2ccc(NC(=O)Nc3ccc(F)cc3)cc2C(=O)N([C@@H](C)CO)C[C@H]1C	i
C/C=C/c1ccc([C@@H]2[C@@H](CO)N3CCCCN(C(=O)Nc4ccccc4F)C[C@@H]23)cc1	i
CCC(=O)Nc1ccc2c(c1)C(=O)N(C)C[C@H](OC)[C@@H](C)CN[C@@H](C)CO2	i
C[C@@H]1CCCCO[C@@H](CN(C)Cc2ccc3c(c2)OCO3)[C@@H](C)CN([C@@H](C)CO)C(=O)c2cc(NS(=O)(=O)c3cn(C)cn3)ccc2O1	i
C[C@H](CO)N1C[C@H](C)[C@H](CN(C)Cc2ccc3c(c2)OCO3)OCCCC[C@H](C)Oc2ccc(NC(=O)C3CCCCC3)cc2C1=O	i
O=C(C1CCC1)N1CC2(C1)[C@@H](c1ccccc1)[C@H](CO)N2C(=O)c1ccccn1	i
CO[C@@H]1CN(C)C(=O)c2ccc(NS(=O)(=O)c3cn(C)cn3)cc2OC[C@H](C)N(Cc2cccc(F)c2)C[C@@H]1C	i
Cc1ccc(S(=O)(=O)N(C)C[C@@H]2OCCCC[C@H](C)Oc3ccc(NS(=O)(=O)c4cn(C)cn4)cc3C(=O)N([C@H](C)CO)C[C@H]2C)cc1	i
CNC(=O)C[C@H]1CC[C@@H]2[C@@H](COc3ccc(NS(=O)(=O)c4cccc(F)c4)cc3C(=O)N2C)O1	i
C[C@H]1CN([C@@H](C)CO)C(=O)Cc2cc(NS(=O)(=O)c3ccc(Cl)cc3)ccc2O[C@H]1CN(C)Cc1ccncc1	i
CN1C(=O)c2cc(NC(=O)c3ccc(F)c(F)c3)ccc2OC[C@H]2O[C@H](CC(=O)N[C@@H]3CCN(Cc4ccccc4)C3)CC[C@@H]21	i
CO[C@@H]1CN(C)C(=O)c2cc(NS(=O)(=O)c3cn(C)cn3)ccc2OC[C@@H](C)N(Cc2ccc(C(F)(F)F)cc2)C[C@H]1C	i
CO[C@H]1CN(C)C(=O)c2cc(NC(=O)C3CCC3)ccc2OC[C@@H](C)N(Cc2ccc(F)cc2)C[C@H]1C	i
C[C@H](CO)N1C[C@H](C)[C@H](CN(C)C(=O)CCC(F)(F)F)OCCCC[C@H](C)Oc2ccc(NC(=O)Cc3ccccc3)cc2C1=O	i
C[C@@H]1CN([C@H](C)CO)C(=O)c2cc(NS(C)(=O)=O)ccc2O[C@H]1CN(C)C(=O)NC1CCCCC1	i
CN1C(=O)c2cc(NC(=O)C3CCOCC3)ccc2OC[C@H]2O[C@H](CC(=O)NCC3CC3)CC[C@@H]21	i
O=C(Nc1cccc(Cl)c1)N[C@@H]1CC[C@@H](CCNC(=O)C2CCCC2)O[C@H]1CO	i
CCC(=O)Nc1ccc2c(c1)C(=O)N(C)[C@@H]1CC[C@H](CC(=O)NC3Cc4ccccc4C3)O[C@H]1CO2	i
CC(C)NC(=O)Nc1ccc2c(c1)C(=O)N([C@H](C)CO)C[C@H](C)[C@H](CN(C)C(=O)NC1CCCCC1)OCCCC[C@@H](C)O2	i
CCC(=O)N1CCCCN2[C@H](CO)[C@H](c3ccc(-c4cccnc4)cc3)[C@H]2C1	i
C[C@H]1CN([C@@H](C)CO)C(=O)c2cc(-c3cccc(F)c3)cnc2O[C@H]1CN(C)Cc1ccncc1	i
C[C@H](CO)N1C[C@H](C)[C@@H](CN(C)Cc2cncnc2)Oc2cc(-c3cccnc3)ccc2S1(=O)=O	i
Cc1noc(C)c1S(=O)(=O)N(C)C[C@@H]1OCCCC[C@@H](C)Oc2ccc(NS(=O)(=O)c3ccccc3)cc2C(=O)N([C@@H](C)CO)C[C@H]1C	i
CN(C)C(=O)c1cccc(-c2ccc([C@@H]3[C@H](CO)N4CCCCN(C(=O)C5CCCC5)C[C@@H]34)cc2)c1	i
C[C@@H]1CN([C@H](C)CO)C(=O)c2cc(-c3ccccc3)cnc2O[C@@H]1CN(C)C	i
O=C(C[C@@H]1CC[C@@H]2[C@H](COC[C@H](O)CN2C(=O)Nc2cc(Cl)cc(Cl)c2)O1)N1CCCCC1	i

# Next records
structure	FGF22 binding
C[C@@H]1CN([C@@H](C)CO)C(=O)c2cccc(NC(=O)c3cnccn3)c2O[C@H]1CN(C)CC1CC1	i
OC[C@@H]1[C@H](c2ccccc2)C2(CN(CCC(F)(F)F)C2)N1Cc1nccs1	i
CO[C@H]1CN(C)C(=O)c2cc(NC(=O)c3cnccn3)ccc2OC[C@@H](C)N(CCc2ccccc2)C[C@@H]1C	i
Cc1ccc(S(=O)(=O)N(C)C[C@H]2Oc3cc(C4=CCCC4)ccc3S(=O)(=O)N([C@@H](C)CO)C[C@@H]2C)cc1	i
C[C@H]1CN([C@@H](C)CO)C(=O)Cc2cc(NC(=O)NC3CCCCC3)ccc2O[C@@H]1CN(C)S(=O)(=O)c1ccccc1	i
C[C@@H](NC(=O)C[C@H]1C=C[C@@H](NC(=O)Cc2ccccn2)[C@H](CO)O1)c1ccccc1	i
CN1C(=O)c2cc(NC(=O)Nc3cccc(Cl)c3)ccc2OC[C@@H]2O[C@H](CC(=O)NCCc3ccncc3)CC[C@@H]21	i
C[C@@H]1CN([C@H](C)CO)S(=O)(=O)c2ccc(-c3cncnc3)cc2O[C@H]1CN(C)C(=O)CN(C)C	i
CO[C@H]1CN(C)C(=O)c2ccc(NC(=O)c3ccc4c(c3)OCO4)cc2OC[C@H](C)NC[C@H]1C	i
O=C(C[C@@H]1C[C@H]2c3cc(NS(=O)(=O)c4ccc(F)cc4)ccc3O[C@H]2[C@H](CO)O1)NCc1cc(F)ccc1F	i
C[C@@H]1CN([C@H](C)CO)C(=O)c2cc(NC(=O)Nc3ccccc3)ccc2O[C@@H](C)CCCCO[C@@H]1CN(C)Cc1ccncc1	i
O=S(=O)(N[C@@H]1CC[C@H](CCn2cc(-c3cccc(F)c3)nn2)O[C@H]1CO)c1ccc(Cl)cc1	i
C[C@@H]1CN([C@@H](C)CO)S(=O)(=O)c2ccc(Br)cc2O[C@@H]1CN(C)CC1CCOCC1	i
C[C@H]1CN([C@@H](C)CO)C(=O)c2cccc(NC(=O)C3CCCCC3)c2O[C@@H]1CN(C)C(=O)NC1CCCCC1	i
CC(C)c1cn(CC[C@H]2CC[C@@H](NS(=O)(=O)c3ccc(F)cc3)[C@@H](CO)O2)nn1	i
C[C@@H]1CN([C@@H](C)CO)C(=O)c2cc(NC(=O)Nc3ccccc3)ccc2O[C@@H]1CN(C)C(=O)Nc1cccc2ccccc12	i
C[C@@H]1CCCCO[C@@H](CN(C)C(=O)c2ccncc2)[C@@H](C)CN([C@H](C)CO)C(=O)c2cc(NS(=O)(=O)c3cccs3)ccc2O1	i
COc1ccccc1NC(=O)N(C)C[C@@H]1OCc2ccccc2-c2ccccc2C(=O)N([C@@H](C)CO)C[C@@H]1C	i
O=C(C[C@H]1CC[C@H]2[C@@H](COC[C@H](O)CN2Cc2ccccc2F)O1)NC1CCC1	i
CCCC(=O)Nc1ccc2c(c1)C(=O)N(C)[C@@H]1CC[C@@H](CC(=O)NCc3ccccc3Cl)O[C@H]1CO2	i
COc1ccc(NC(=O)N(C)C[C@H]2OCCCC[C@@H](C)Oc3ccc(NC(=O)Nc4ccccc4)cc3C(=O)N([C@@H](C)CO)C[C@H]2C)cc1	i
C[C@H]1CCCCO[C@@H](CN(C)C(=O)CCC(F)(F)F)[C@@H](C)CN([C@@H](C)CO)C(=O)c2cc(NS(C)(=O)=O)ccc2O1	i
CCCNC(=O)N(C)C[C@@H]1Oc2ncc(C#CCc3ccccc3)cc2C(=O)N([C@@H](C)CO)C[C@H]1C	i

# The list is partial (hit frequency here may not be typical).
